Assay outcomes from PubChem BioAssay.
Polio RdRp inh – inhibitors of poliovirus RNA polymerase binding and polymerization. 150,000 tested, 0.66% active. P03300. % elongation, % (compound at 16.7 µg/mL). poliovirus polymerase elongation, fluorescence polarization; stronger effect = lower value; in the data active = % elongation below about 90%; also: some results filed as inactive read as strong as hits
Mtb MbtI inh – blocks the Mycobacterium tuberculosis siderophore enzyme MbtI. inhibition, %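 (about 17 µg/mL by stock and volumes)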. purified MbtI enzyme, fluorescence intensity read-out. 100,000 tested, 0.89% active;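 active = above 50% in both replicates, above 80% if mildly self-fluorescent; inactive = the rest, strongly fluorescent compounds included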;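 also: 0% = mean of negative and 100% = mean of positive controls; one replicate is shown; some compounds called inactive have numbers as strong as hits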
Target sequence (P9WFX0 whole entry, looked up): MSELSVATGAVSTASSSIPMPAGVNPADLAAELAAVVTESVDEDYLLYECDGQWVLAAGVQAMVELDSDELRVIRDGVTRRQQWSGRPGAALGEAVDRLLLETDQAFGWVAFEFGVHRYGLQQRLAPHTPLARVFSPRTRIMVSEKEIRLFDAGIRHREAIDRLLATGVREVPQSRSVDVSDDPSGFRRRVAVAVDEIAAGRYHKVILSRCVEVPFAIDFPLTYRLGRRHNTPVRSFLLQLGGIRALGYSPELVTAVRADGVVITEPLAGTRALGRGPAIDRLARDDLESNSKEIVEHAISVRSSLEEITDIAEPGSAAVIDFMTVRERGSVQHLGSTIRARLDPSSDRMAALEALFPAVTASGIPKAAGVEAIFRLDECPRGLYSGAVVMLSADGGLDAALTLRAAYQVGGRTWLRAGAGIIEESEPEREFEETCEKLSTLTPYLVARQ
MenB inh – inhibitors of Mycobacterium tuberculosis MenB enzyme | MenB enzyme assay, absorbance read-out; some hits fall short of the stated cut | AID 540299 | 100,000 tested, 0.43% active | inhibition, %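 (about 12 µg/mL by stock and volumes)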 | P9WNP5;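 active = mean of two replicates above 30%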;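 also: 0% = no compound and 100% = wells with inactive enzyme; the first replicate is given; strong numbers were not always called active; inactives centre near -10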
Target sequence (P9WNP5 whole entry, looked up): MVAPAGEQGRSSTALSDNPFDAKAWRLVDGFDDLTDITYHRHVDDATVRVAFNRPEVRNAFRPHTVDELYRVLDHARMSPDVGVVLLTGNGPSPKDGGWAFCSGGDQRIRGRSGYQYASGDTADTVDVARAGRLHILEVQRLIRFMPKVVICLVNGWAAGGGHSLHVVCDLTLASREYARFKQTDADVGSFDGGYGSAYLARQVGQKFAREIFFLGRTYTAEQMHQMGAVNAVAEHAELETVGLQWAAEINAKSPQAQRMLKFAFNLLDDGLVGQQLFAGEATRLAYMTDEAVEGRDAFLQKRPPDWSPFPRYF
Polio RdRp inh intensity – also measured in Polio RdRp inh; calls as there; % elongation; measured here: total intensity read-out; formula for this scale not given here;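 total fluorescence in place of polarization; lower means less elongation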
* = called active by the depositor; x = no result given; & = joins results of further samples. This is a random part of the collection, and some 1.7% of all compounds hit somewhere here.

compound	Polio RdRp inh	Mtb MbtI inh	MenB inh	Polio RdRp inh intensity
Cc1cc2c(cc3c(=O)n(CC(=O)N4CCc5ccccc5C4)ncn32)s1	101	0	7	99
O=C1C(c2ccccc2)CCCC1c1ccccc1 (configuration not stated)	108	-11	-6	114
COc1nc(NCCO)nc(Nc2ccccc2F)n1	102	0	2	101
CC1CCCC(C)N1C(=O)Cc1cccs1 (configuration not stated)	128	x	-3	150
CCOC(=O)c1c(CC(C)C)csc1NC(=O)C(C)C	104	-5	x	102
Cc1ccc(Cl)cc1N1CCN(C(=O)C2CCCN2S(=O)(=O)c2cccc3nsnc23)CC1 (configuration not stated)	102	-5	0	102
CCC(=O)Nc1ccc(-n2cnnn2)cc1	102	-2	-12	104
COc1cc(/C=C(\C#N)C(=O)C(C)(C)C)ccc1O	103	50	-62	108
O=C(Nc1c(-c2ccc(F)cc2)nc2ccccn12)c1ccccc1	101	-4	-20	97
C=CCSc1nnc(NC(=O)CCNS(=O)(=O)c2ccccc2)s1	x	-5	-14	x
CC(C)N(CCc1ccncc1)C(=S)NC1CCCCC1	102	-7	2	107
CC(=O)N1c2ccc(F)cc2C(C)CC12CCCC2 (configuration not stated)	100	-3	-23	101
CCOC(=O)Cn1c(C)cc(=O)c2cccc(C)c21	101	6	-22	101
O=C(c1cc2c(s1)-c1ccccc1OC2)N1CCCCC1	102	70	-3	104
COc1ccc(OC)c(/C=N/c2ncn[nH]2)c1	103	-6	-10	104
O=S(=O)(c1cccc2c(Cl)cccc12)N1CCCNCC1	101	4	x	101
O=C(CSc1nnc(CN2CCCCC2)o1)Nc1c(Cl)cc(Cl)cc1C(=O)O	96	86	-19	93
Cc1cc2c(cc(C(=O)OC(C(=O)NC3CCCCC3)C(C)C)n2C)o1 (configuration not stated)	103	9	-48	101
CN(C)C(=O)CCCOc1ccccc1	101	-9	-4	103
CNC(=O)c1ccccc1NC(=O)C1=CSCCO1	100	7	-12	104
CC(C)(O)C(=O)CCc1ccccc1	101	-22	-19	102
CNC(=S)N(C)CCc1ccc(OC)c(OC)c1	102	-4	5	105
COc1ccc(OCCSc2nc3ccccc3n2C)cc1	105	x	-16	106
CNC(=O)CCN1C(=O)c2cccnc2Sc2ccccc21	102	-4	14	102
Cc1cc(C(=O)C(C)Sc2nnc(N)s2)c(C)n1-c1ccc(Cl)cc1 (configuration not stated)	104	-26	-4	110

Entries of single compounds, quoted from the list.
Shown for `CNC(=O)c1ccccc1NC(=O)C1=CSCCO1` : Polio RdRp inh = 100; Mtb MbtI inh = 7; MenB inh = -12; Polio RdRp inh intensity = 104
Shown for `CN(C)C(=O)CCCOc1ccccc1` : Polio RdRp inh = 101; Mtb MbtI inh = -9; MenB inh = -4; Polio RdRp inh intensity = 103
Shown for `Cc1ccc(Cl)cc1N1CCN(C(=O)C2CCCN2S(=O)(=O)c2cccc3nsnc23)CC1` (configuration not stated) : Polio RdRp inh = 102; Mtb MbtI inh = -5; MenB inh = 0; Polio RdRp inh intensity = 102

More records:
compound	Polio RdRp inh	Mtb MbtI inh	MenB inh	Polio RdRp inh intensity
Cc1ccc(CN(C)Cn2nc(-c3c[nH]c4ccccc34)n(-c3ccc(Cl)cc3)c2=S)o1	103	25	-43	101
CC(C)(C)OC(=O)N1CCCC(C(=O)O)C1 (configuration not stated)	103	-9	-13	103
O=C(O)c1ccc(S(=O)(=O)N2CCCC3CCCCC32)cc1 (configuration not stated)	104	-10	-15	104
O=C(CSc1nnc2n1CCCCC2)N1CCCC1c1ccc2c(c1)OCCCO2 (configuration not stated)	101	-4	-7	102
CCOC(=O)c1oc2ccccc2c1Cn1cc(S(=O)(=O)N2CCCC2)ccc1=O	106	-6	-13	121
O=C(COC(=O)C1CCCCN1S(=O)(=O)c1ccccc1)Nc1ccc(OC(F)F)cc1 (configuration not stated)	100	-3	-32	94
COc1ccccc1N1CCN(CCCNS(=O)(=O)c2ccc(-c3cc(C)no3)s2)CC1	100	-2	-3	103
NC1=NC(=O)CC(C(=O)Nc2cccc3ccccc23)S1 (configuration not stated)	101	-10	-4	99
C=C(C)c1ccccc1NC(=O)Cn1c(=O)sc2ccccc21	102	-8	-20	101
COc1ccccc1NC(=O)NC1(C(=O)N2CCc3ccccc32)CCCCC1	102	-5	9	101
COC(=O)COc1ccc(S(=O)(=O)Nc2cc(OC)ccc2OC)cc1	102	-2	-3	103
O=C(O)Cn1ccnc1	99	-4	25	100
Cc1ccc(-n2nc(C)cc2/N=C/N(C)C)cc1	106	7	-9	110
Cn1c(SCC(=O)N2CCCc3ccccc32)nnc1-c1ccccc1N	101	-1	23	100
CCOC(=O)C1=C(C)N(C)C(=O)N(C)C1c1ccccc1 (configuration not stated)	102	-1	-2	110
CN1CN(C)c2ccc(Br)c3cccc1c23	99	17	10	123
CC1CCCC(C)N1C(=O)CSc1nc2ccccc2[nH]1 (configuration not stated)	102	-5	x	99
CN1CCN(C(=O)c2cccc(S(=O)(=O)N(C)C)c2)CC1	102	-15	5	106
O=C(NCc1cccs1)C(NS(=O)(=O)c1ccc(Br)s1)c1ccccc1 (configuration not stated)	100	0	-18	99
Cc1ccccc1Cn1ccc(NC(=O)COCc2cc(-c3cccs3)on2)n1	104	0	-28	104
COc1cccc(N2CC(=O)N(/N=C/c3ccc(C)o3)CC2=O)c1	103	0	-4	106
CCN(CC)S(=O)(=O)c1ccc(-c2nnc(SCC(=O)N3CCCC3)n2CC)cc1	103	-4	-23	103
CCSc1nnc(-c2ccc(S(=O)(=O)N3CCOCC3)cc2)n1C	104	36	-21	104
O=c1ccc(S(=O)(=O)N2CCCC2)cn1Cc1c(-c2ccccc2)nc2sccn12	103	3	-2	104
O=C(O)CCN1c2ccccc2Sc2ccccc21	97	-7	x	97
O=C(/C=C/c1ccc2c(c1)OCO2)/C=C/c1ccc2c(c1)OCO2	103	1	-52	107
CO[C@@]12[C@H](COC(N)=O)C3=C(C(=O)C(C)=C(N)C3=O)N1C[C@@H]1N[C@@H]12	102&96	-5	-2	100&101
Cn1c(SCC(=O)NCCN2C(=O)S/C(=C\c3ccccc3F)C2=O)nnc1-c1ccco1	x	-3	-17	x
CSc1nc(N)n2nc(-c3ccccc3)cc2n1	112	1	-9	113
CNC(=O)Nc1cccc(-c2ccnc(C)n2)c1	107	-14	10	116
CCC(C)NS(=O)(=O)c1ccc(NC(=O)c2cccs2)cc1 (configuration not stated)	104	-4	-24	101
CCOc1ccc(OCC)c(NC(=O)c2c(C)nc3ccccn23)c1	103	-26	-41	103
COc1ccccc1N(CC(=O)Nc1ccccc1)S(C)(=O)=O	101	3	-11	106
CCN(CC)C(=O)c1sc2nc(-c3ccccc3)ccc2c1N	101	-1	-27	108
Cc1ccc2c(c1)-c1c(cnn1CC(=O)Nc1ccccc1N1CCN(C)CC1)CO2	100	-1	3	102
O=C(CCCn1c(SCC(=O)c2ccc(F)cc2)nc2ccccc2c1=O)NCc1ccccc1	102	-8	-13	105
Cc1noc(C)c1CN1C(=O)NC(Cc2ccccc2)(Cc2ccccc2)C1=O	102	-22	-29	108
O=C1CCCN1C(=O)CSc1nc(-c2ccccc2)cs1	104	-6	7	107
O=c1c(N2CCCC2)csc2ccc(F)cc12	103	30	-99	112
O=C(CCSc1nc(-c2ccco2)cc(C(F)(F)F)n1)N1CCCCC1	101	-11	-12	99
O=C(CCC(=O)N1CC=C(c2c[nH]c3ccccc23)CC1)NC1CCCC1	100	-56	-2	104
O=C(NCc1ccc2c(c1)OCO2)[C@@H](c1ccccc1)N1Cc2ccccc2C1=O	100	4	-22	98
CCc1ccc(N2C(=S)N(C(=O)c3cccs3)C3CC2(C)Oc2ccccc23)cc1 (configuration not stated)	116	-8	-16	169
CC(=O)Nc1ncc(CN2CCCCC2)s1	101	-10	-8	101
O=C(CN1c2cccc3cccc(c23)S1(=O)=O)Nc1ccccc1	112	8	-41	103
CCOC(=O)/C(C#N)=C/c1cn(C(=O)c2ccncc2)nc1-c1ccccc1	99	0	-13	102
Cc1ccc(NC(=O)CN(C)C(=O)CSc2nnc(-c3ccccc3)n2N)cc1	104	47	-32	103
NCCCc1ccc(F)cc1	102	-2	-54	102
O=C(Nc1ccccc1)N1CCCC(c2nc(-c3cccs3)no2)C1 (configuration not stated)	102	-9	-22	104
c1coc(-c2cn3c(n2)sc2ccccc23)c1	108	27	x	106

More compounds follow.
compound	Polio RdRp inh	Mtb MbtI inh	MenB inh	Polio RdRp inh intensity
Cc1ccc2c(c1)c1c3n2CCN(C/C(=N/O)c2ccc(Br)cc2)C3CCC1 (configuration not stated)	105	2	-13	112
O=c1ccc(C(F)(F)F)cn1Cc1ncc(-c2ccccc2)o1	104	-5	-34	95
COc1nc(N2CCc3ccccc32)nc(N2CCc3ccccc32)n1	104	x	6	105
COc1ccc2c(c1)c(C(=O)O)c(C)n2C1CCCCC1	99	-20	-15	107
S=c1n(CN2CCCCC2)c2ccccc2n1CN1CCCCC1	104	18	-9	104
Cc1ccc(-n2nnnc2S(C)(=O)=O)c(C)c1	99	x	-6	101
Cn1c(=O)oc2cc(N)ccc21	101	26	-19	104
Nc1nc(CC(=O)c2ccccc2)cs1	109	12	-50	119
CCS(=O)(=O)C1=NSC2=NC(=O)/C(=C\c3ccco3)C(=N)N21	72*	35	-41	26*
O=C(OC1CCSC1)c1cc(C(F)(F)F)cc(C(F)(F)F)c1 (configuration not stated)	106	1	-12	109
CCNc1nc(SCCOc2ccccc2)nc(N(C)C)n1	105	-1	5	102
O=S(=O)(c1ccc(Cl)cc1)N(Cc1ccccc1)S(=O)(=O)c1ccc(Cl)cc1	104	-7	-11	106
CCn1c(-c2ccc3c(c2)OCCO3)cnc1SCC(=O)Nc1ccccc1C(=O)NC1CC1	96	-2	-4	97
COCCNCc1ccccc1	110	-5	-3	109
COc1ccc(CC(=O)N/N=C2/CC(=O)CC(C)(C)C2)cc1	105	20	-18	104
CCOC(=O)c1cnc2ccc(OCC)cc2c1NCCN(C)C	101	35	-9	102
O=C1CCC(C(=O)NC2CCCCCC2)=NN1	108	1	0	105
CC1CCC(NS(=O)(=O)c2ccc3c(c2)oc(=O)n3C)CC1 (configuration not stated)	101	4	-1	106
CCOC(=O)c1oc2ccccc2c1COC(=O)c1ccc(S(=O)(=O)N2CCCC2)cc1	101	-9	-43	108
Cc1c(C(=O)OCC(=O)N(C)C2(C#N)CCCCC2)oc2ccc(Br)cc12	x	-3	-38	x
O=C(/C=C/c1cn(-c2ccccc2)nc1-c1cc2ccccc2o1)N1CCOCC1	102	21	-9	98
NC(=O)N/N=C(/C=C/c1ccccc1)C1(O)CCCCC1	106	2	-18	100
O=C(NCC1COc2ccccc2O1)c1cn(-c2ccc(F)cc2)nn1 (configuration not stated)	104	-4	-22	103
Cc1ccc(NC(=O)N2CCC(CN3CCOCC3)CC2)cc1F	101	17	6	100
Cc1cc(C)c(O)c(N)c1	105	101*	7	101
O=C(c1ccccc1O)N1N=C(C(F)(F)F)CC1(O)C(F)(F)F (configuration not stated)	106	x	-37	104
CCCCc1c(O)c2cccc3c4ccccc4n(c1=O)c23	99	-28	5	103
S=c1[nH]nc(-c2ccncc2)n1C1CCCC1	101	-182	-22	96
CN(C)c1ccc(NC(=S)N=P(c2ccncc2)(N(C)C)N(C)C)cc1	101	81*	-32	97
O=C(/C=C/C(=O)c1ccccc1)c1ccccc1	99	102	-9	97
O=C(CCN1CCc2ccccc2C1)Nc1ccc2c(c1)CCC2	101	x	-1	103
Cc1ccc(Sc2sc(=O)n(C)c2S(=O)(=O)c2ccc(C)cc2)cc1	101	3	-16	100
Cn1c(=O)cc(SCC(=O)Nc2cccnc2)c2ccccc21	102	6	-17	104
O=C(Nc1ccc(F)cc1)C1CC(=O)N(CCc2ccccc2)C1 (configuration not stated)	103	8	13	97
O=C(NCC1CCCN1S(=O)(=O)c1ccccc1)Nc1ccccc1 (configuration not stated)	102	-8	-18	106
CC1=CSC2=NC(=O)/C(=C\c3ccc(SCc4ccc(Cl)cc4)o3)C(=N)N12	77	-4	-43	155
CN(C)CC#CCN1CCCC2(CCOC(C)(C)C2)C1 (configuration not stated)	96	x	1	102
O=C(Cn1ncn2c(cc3ccccc32)c1=O)NCCc1ccccc1	102	14	-8	99
Cc1ccc(N2CC(C(=O)NC3CC3)CC2=O)cc1Cl (configuration not stated)	103	-12	3	102
CCCn1c(SC(C(=O)c2ccccc2)c2ccccc2)n[nH]c1=O (configuration not stated)	105	-7	-19	108
N#CC1CCN(CCS(=O)(=O)c2ccc(Cl)cc2)CC1	105	-11	2	105
Oc1ccc(-c2cnc3ccncc3n2)cc1	106	x	-35	104
Cc1[nH]n(-c2ccccc2)c(=O)c1/C=N/NC(=O)c1ccccc1	104	-1	-45	104
CCN(C(=O)c1cccc2c1SCCC2=O)c1ccccc1F	104	-6	-7	102
